NOMO-1 viab – STK33 inhibitor candidate reducing NOMO-1 cell viability | NOMO-1 AML viability, CellTiter-Glo luminescence, 72 h | inhibition, % (no concentration beside the values) | 37,000 compounds, 7.5% hits | AID 2330;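 active = most replicates above 80%; inconclusive = exactly half above 80%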;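 note: wells of about 30 µL received 25 nL stock; 0% = median of vehicle wells and 100% = reference inhibitor level; the first replicate is given; inactives centre near 10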
Numbers without * were called inactive; ? = inconclusive.

SMILES | NOMO-1 viab
Cn1c(=O)c2c(ncn2CCCCn2cnc3c2c(=O)n(C)c(=O)n3C)n(C)c1=O | 27.0
Cc1cc(C(=O)Nc2cccc3c2O[C@H](CN(C)C(=O)Nc2ccc(F)cc2)[C@@H](C)CN([C@@H](C)CO)C3=O)n(C)n1 | -2.8
C[C@H](CO)N1C[C@H](C)[C@@H](CN(C)CC2CC2)Oc2ccc(NS(=O)(=O)c3cccs3)cc2C1=O | -9.3
C[C@H](CO)N1C[C@H](C)[C@H](CN(C)S(=O)(=O)c2cn(C)cn2)Oc2ccc(NC(=O)Cc3cn(C)c4ccccc34)cc2C1=O | 12.7
Cc1ccc(S(=O)(=O)Nc2cccc3c2O[C@H](CN(C)S(=O)(=O)c2cccs2)[C@H](C)CN([C@H](C)CO)C3=O)cc1 | 57.1
CN(C)c1nc(Nc2nc3ccccc3[nH]2)nc(N(C)C)n1 | -10.3
CC1=CC[C@@]2(C)CC[C@@](O)(C(C)C)[C@@H]2[C@@H](O)C1 | -0.5
C[C@@H]1CN([C@@H](C)CO)C(=O)c2cc(NC(=O)Nc3ccccc3)ccc2O[C@H]1CN(C)C(=O)Nc1cccc2ccccc12 | -20.4
O=C(CSC1=NC(=O)C(c2ccccc2)C(=O)N1)NC1CCCCC1 (stereo unspecified) | 13.0
COc1ccccc1C(=O)N(Cc1nc(-c2cccc(C)c2)no1)C(C)C | 17.9
C[C@@H]1CN([C@@H](C)CO)C(=O)c2cccc(NC(=O)c3cnccn3)c2O[C@@H]1CN(C)CC1CCCCC1 | -0.6
COc1ccc(S(=O)(=O)Nc2ccc3c(c2)C(=O)N([C@@H](C)CO)C[C@@H](C)[C@@H](CN(C)Cc2ccccc2)O3)cc1 | 2.7
C[C@H](CO)N1C[C@H](C)[C@H](CN(C)Cc2ccncc2)Oc2ccc(NS(=O)(=O)c3cccs3)cc2C1=O | 13.5
O=C(CSc1nnc(-c2ccc(Cl)cc2)o1)Nc1cc(C(F)(F)F)ccc1Cl | 6.0
O=C(Cn1cnc2ccccc2c1=O)Nc1ccc(F)cc1F | -8.4
C(=C\c1nn2c(Cn3cnc4ccccc43)nnc2s1)/c1ccccc1 | 40.8
Cn1nc(-c2ccc(C(=O)Nc3ccc(Cl)cc3)s2)cc1C(F)(F)F | ?
CCc1cc2c(SCC(N)=O)ncnc2s1 | 32.4
Cc1cc(Cl)ccc1NC(=O)COc1ccc(C(=O)Nc2ccc(F)cc2)cc1 | 7.4
COc1ccc(NC(=O)Nc2ccc3c(c2)CC(=O)N([C@@H](C)CO)C[C@H](C)[C@@H](CN(C)C(=O)Nc2ccccc2)O3)cc1 | 5.7
C[C@@H]1CN([C@H](C)CO)C(=O)Cc2cc(N(C)C)ccc2O[C@H]1CN(C)Cc1ccc(C(=O)Nc2ccccc2N)cc1 | 126.9*
C[C@@H]1CCCCO[C@H](CN(C)CC2CCCCC2)[C@@H](C)CN([C@H](C)CO)C(=O)c2cc(NC(=O)c3ccncc3)ccc2O1 | 18.4
Cc1ccc(NC(=O)CSc2nnc(C)n2-c2ccc(F)cc2)cc1Cl | -17.3
C[C@H]1CN([C@@H](C)CO)C(=O)Cc2cc(NC(=O)Nc3ccc4c(c3)OCO4)ccc2O[C@@H]1CN(C)S(=O)(=O)c1ccc(Cl)cc1 | 33.9
C[C@@H]1CCCCO[C@H](CN(C)C(=O)Nc2ccccc2)[C@@H](C)CN([C@H](C)CO)C(=O)c2cc(NC(=O)Nc3ccccc3)ccc2O1 | 20.5

A few values from the list.
In NOMO-1 viab, `C[C@H](CO)N1C[C@H](C)[C@H](CN(C)Cc2ccncc2)Oc2ccc(NS(=O)(=O)c3cccs3)cc2C1=O` has the entry 13.5
In NOMO-1 viab, `C[C@H](CO)N1C[C@H](C)[C@H](CN(C)S(=O)(=O)c2cn(C)cn2)Oc2ccc(NC(=O)Cc3cn(C)c4ccccc34)cc2C1=O` has the entry 12.7
In NOMO-1 viab, `COc1ccc(S(=O)(=O)Nc2ccc3c(c2)C(=O)N([C@@H](C)CO)C[C@@H](C)[C@@H](CN(C)Cc2ccccc2)O3)cc1` has the entry 2.7
In NOMO-1 viab, `O=C(CSc1nnc(-c2ccc(Cl)cc2)o1)Nc1cc(C(F)(F)F)ccc1Cl` has the entry 6.0
In NOMO-1 viab, `Cn1c(=O)c2c(ncn2CCCCn2cnc3c2c(=O)n(C)c(=O)n3C)n(C)c1=O` has the entry 27.0
In NOMO-1 viab, `C[C@@H]1CCCCO[C@H](CN(C)CC2CCCCC2)[C@@H](C)CN([C@H](C)CO)C(=O)c2cc(NC(=O)c3ccncc3)ccc2O1` has the entry 18.4

Next records follow:
SMILES | NOMO-1 viab
Cc1cccc(NC(=O)/C=C/c2ccccc2)c1 | 29.2
C[C@@H]1CN([C@@H](C)CO)C(=O)Cc2cc(NC(=O)Nc3ccc(F)cc3)ccc2O[C@@H]1CN(C)Cc1ccc(Cl)c(Cl)c1 | 102.7*
Cc1cccc(OCC(=O)Nc2ccc(C(=O)Nc3ccccc3C(=O)O)cc2)c1 | 10.9
Oc1ccc(Br)cc1CNc1nc2ccccc2[nH]1 | 16.9
C[C@@H]1CN([C@H](C)CO)C(=O)c2cc(N(C)C)ccc2O[C@@H]1CN(C)S(C)(=O)=O | -4.2
CC(C)(O)C(O)COc1c2ccoc2cc2oc(=O)ccc12 (stereo unspecified) | 7.8
C[C@H]1CN([C@@H](C)CO)C(=O)c2cc(N(C)C)ccc2O[C@H]1CN(C)Cc1ccc(C(F)(F)F)cc1 | 16.0
COc1ccccc1CC(=O)Nc1cc(Cl)ccc1C(=O)O | 17.3
CNC[C@@H]1Oc2c(NC(=O)Nc3ccc(F)cc3)cccc2C(=O)N([C@@H](C)CO)C[C@@H]1C | -5.5
CCc1ccc(CC(=S)N2CCOCC2)cc1 | 18.2
Cc1ccc(C(C)C)c(O)c1C(=O)O | -0.7
CC(C)C1CCC(C)C(C(O)c2ccc(-c3ccccc3)cc2)C1=O (stereo unspecified) | 13.9
C[C@@H]1CN([C@H](C)CO)C(=O)Cc2cc(NC(=O)c3ccncc3)ccc2O[C@@H]1CN(C)Cc1ccccc1 | 23.2
Cc1nc2ccc(F)cc2c2c1CCN2c1ccc(Cl)cc1 | 107.1*
CC(=O)Nc1ccc(S(=O)(=O)NC2(C(F)(F)F)C(=O)N(C3CCCCC3)C(C)=C2C(C)=O)cc1 (stereo unspecified) | 8.3
Clc1ccc(Cn2ncc3c(NCc4cccnc4)ncnc32)cc1 | 47.2
COc1ccc(NC(=O)N(C)C[C@H]2Oc3c(NC(=O)Nc4cccc5ccccc45)cccc3C(=O)N([C@@H](C)CO)C[C@@H]2C)cc1 | 11.7
C[C@@H]1CN([C@H](C)CO)C(=O)c2cc(NC(=O)NC3CCCCC3)ccc2O[C@H]1CN(C)C(=O)Nc1ccc2c(c1)OCO2 | 12.2
Cc1ccc(S(=O)(=O)N(C)C[C@@H]2Oc3ccc(NC(=O)Cn4cnnn4)cc3CC(=O)N([C@H](C)CO)C[C@@H]2C)cc1 | 35.4
C[C@H](CO)N1C[C@H](C)[C@H](CN(C)Cc2ccc(C(=O)O)cc2)Oc2c(NC(=O)c3cnccn3)cccc2C1=O | 2.2
C[C@@H]1CN([C@H](C)CO)C(=O)Cc2cc(NC(=O)Nc3ccc(F)cc3)ccc2O[C@H]1CN(C)Cc1ccc(Oc2ccccc2)cc1 | 123.3*
C[C@H](CO)N1C[C@H](C)[C@@H](CN(C)S(=O)(=O)c2ccc(F)cc2)Oc2c(NS(=O)(=O)c3ccc(F)cc3)cccc2C1=O | 15.1
O=C(NCc1cccnc1)C(=O)Nc1cccc(Cl)c1Cl | 12.2
COc1ccc(S(=O)(=O)Nc2cccc3c2O[C@@H](CN(C)S(=O)(=O)c2ccc(F)cc2)[C@H](C)CN([C@H](C)CO)C3=O)cc1 | 5.5
O=c1c2ccccc2nc(-c2ccco2)n1CCN1CCOCC1 | 0.7
More compounds follow:
SMILES | NOMO-1 viab
O=C(O)c1ccc(NS(=O)(=O)c2ccc3c4c(cccc24)C(=O)N3)cc1 | -5.0
COc1ccc(S(=O)(=O)N(C)CC(=O)Nc2ccc(F)c(Cl)c2)cc1C | -13.1
COC(=O)c1c(NC(=O)C(C)Oc2ccc(F)cc2)sc(C(C)=O)c1C (stereo unspecified) | ?
Cc1ccc(S(=O)(=O)Nc2cccc3c2O[C@H](CN(C)C(=O)Nc2ccc(F)cc2)[C@H](C)CN([C@H](C)CO)C3=O)cc1 | -7.4
C[C@@H]1CN([C@H](C)CO)C(=O)Cc2cc(NS(=O)(=O)c3cn(C)cn3)ccc2O[C@H]1CN(C)S(C)(=O)=O | 12.6
C[C@@H]1CN([C@@H](C)CO)C(=O)c2cc(NS(C)(=O)=O)ccc2O[C@@H]1CN(C)Cc1ccc(Oc2ccccc2)cc1 | 1.5
COc1ccc(NC(=O)Nc2cccc3c2O[C@@H](CN(C)Cc2ccc(C(F)(F)F)cc2)[C@@H](C)CN([C@H](C)CO)C3=O)cc1 | 44.8
CCOC(=O)CSc1nnc(-c2ccc(Cl)cc2)n1-c1ccccc1 | -3.2
Cc1noc(C)c1NC(=O)Nc1ccc2c(c1)C(=O)N([C@H](C)CO)C[C@H](C)[C@@H](CN(C)C(=O)Nc1ccc(F)cc1)O2 | 14.7
S=C(NCC1CCCO1)Nc1cccc(Cn2cc(Cl)cn2)c1 (stereo unspecified) | 14.8
C[C@H](CO)N1C[C@H](C)[C@H](CN(C)C(=O)Nc2cccc3ccccc23)Oc2ccc(NC(=O)CCC(F)(F)F)cc2CC1=O | 21.7
O=C(CN1C(=O)c2ccccc2S1(=O)=O)Nc1ccccc1C(=O)N1CCCC1 | 16.9
Cc1ccc(S(=O)(=O)Nc2cccc3c2O[C@@H](CN(C)C(=O)Nc2ccccc2)[C@H](C)CN([C@@H](C)CO)C3=O)cc1 | 17.6
Cc1ccc(S(=O)(=O)Nc2ccc3c(c2)C(=O)N([C@H](C)CO)C[C@H](C)[C@@H](CN(C)S(=O)(=O)c2ccc(Cl)cc2)OCCCC[C@@H](C)O3)cc1 | 55.3
CC(C)NC(=O)N(C)C[C@H]1Oc2c(NC(=O)C3CCOCC3)cccc2C(=O)N([C@H](C)CO)C[C@@H]1C | -8.3
c1ccc(-c2nnc(N3CCOCC3)nc2-c2ccccc2)cc1 | 3.3
C[C@H]1CN([C@@H](C)CO)C(=O)c2cc(NC(=O)Nc3cccc4ccccc34)ccc2O[C@@H]1CN(C)S(=O)(=O)c1ccc(F)cc1 | 4.0
C[C@H](CO)N1C[C@H](C)[C@@H](CN(C)C(=O)NC2CCCCC2)Oc2c(NC(=O)Nc3ccccc3)cccc2C1=O | 23.0
Clc1ccc(-n2c(SCc3nc4ccccc4s3)nnc2-c2cccs2)cc1 | 29.7
COc1cc(Br)cc2cc(C(=O)NCCCN3CCOCC3)c(=O)oc12 | 24.6
C[C@@H]1CCCCO[C@H](CN(C)C)[C@@H](C)CN([C@H](C)CO)C(=O)c2cc(NC(=O)Nc3ccc(C(F)(F)F)cc3)ccc2O1 | 13.0
Cc1ccc(Cn2c(NCc3nc4ccccc4n3C)nc3ccccc32)cc1 | 7.8
O=C(/C=C/c1ccccc1)OCC1=CC[C@@H]2C(C(=O)O)=CO[C@@H](O[C@@H]3O[C@H](CO)[C@@H](O)[C@H](O)[C@H]3O)[C@H]12 | -5.2
C[C@@H]1CN([C@@H](C)CO)C(=O)c2cc(NC(=O)CCCCCC(=O)Nc3ccccc3N)ccc2O[C@H]1CN(C)Cc1ccc2c(c1)OCO2 | 18.0
Cc1ccc(S(=O)(=O)NC(C(=O)O)C(C)C)cc1 (stereo unspecified) | 4.8

Five structures from above, arranged by length of the SMILES, smallest number first:
SMILES | NOMO-1 viab
CCOC(=O)CSc1nnc(-c2ccc(Cl)cc2)n1-c1ccccc1 | -3.2
COc1cc(Br)cc2cc(C(=O)NCCCN3CCOCC3)c(=O)oc12 | 24.6
CC(C)NC(=O)N(C)C[C@H]1Oc2c(NC(=O)C3CCOCC3)cccc2C(=O)N([C@H](C)CO)C[C@@H]1C | -8.3
C[C@@H]1CCCCO[C@H](CN(C)C)[C@@H](C)CN([C@H](C)CO)C(=O)c2cc(NC(=O)Nc3ccc(C(F)(F)F)cc3)ccc2O1 | 13.0
Cc1ccc(S(=O)(=O)Nc2ccc3c(c2)C(=O)N([C@H](C)CO)C[C@H](C)[C@@H](CN(C)S(=O)(=O)c2ccc(Cl)cc2)OCCCC[C@@H](C)O3)cc1 | 55.3

(next part)
SMILES | NOMO-1 viab
C[C@@H]1CN([C@@H](C)CO)C(=O)c2cccc(NC(=O)Nc3ccc4c(c3)OCO4)c2O[C@H]1CN(C)Cc1ccc(C(=O)O)cc1 | 13.9
O=C(CSc1nc2sc3c(c2c(=O)n1Cc1ccco1)CCC3)N1CCc2ccccc21 | 4.9
COc1ccc(OCC(=O)Nc2ccc(-c3nc4ccccc4s3)c(Cl)c2)cc1 | 26.3
COc1ccc(NC(=O)Nc2ccc3c(c2)C(=O)N([C@H](C)CO)C[C@H](C)[C@@H](CN(C)C(=O)NC(C)C)OCCCC[C@@H](C)O3)cc1 | -15.9
CC(C)NC(=O)Nc1cccc2c1O[C@H](CN(C)Cc1ccccc1)[C@@H](C)CN([C@@H](C)CO)C2=O | 3.2
COc1ccc(S(=O)(=O)NCc2ccccc2)cc1-c1nnc2c3ccccc3c(C)nn12 | 115.7*
COc1ccc(NC(=O)N(C)C[C@H]2OCCCC[C@@H](C)Oc3ccc(N(C)C)cc3C(=O)N([C@H](C)CO)C[C@@H]2C)cc1 | 1.8
Cc1ccccc1N(CC(=O)O)S(=O)(=O)c1ccc(Cl)cc1 | 2.4
COc1ccc(S(=O)(=O)N(C)C[C@@H]2Oc3c(NC(=O)Nc4ccc5c(c4)OCO5)cccc3C(=O)N([C@@H](C)CO)C[C@H]2C)cc1 | 11.3
Cc1noc(C)c1S(=O)(=O)Nc1ccc2c(c1)C(=O)N([C@@H](C)CO)C[C@@H](C)[C@@H](CN(C)Cc1ccncc1)O2 | -8.9
C[C@@H]1CN([C@H](C)CO)C(=O)Cc2cc(N(C)C)ccc2O[C@@H]1CN(C)Cc1ccc(Cl)c(Cl)c1 | 98.6*
C[C@H]1CN([C@@H](C)CO)C(=O)c2cc(NC(=O)CCC(F)(F)F)ccc2O[C@@H]1CN(C)CC1CCCCC1 | 2.1
C[C@@H]1CN([C@@H](C)CO)C(=O)c2cccc(NC(=O)c3ccc(-c4nccs4)cc3)c2O[C@@H]1CN(C)Cc1ccc(C(=O)Nc2ccccc2N)cc1 | 141.3*

Source: PubChem BioAssay (Broad Institute)

Some of the compounds tested, so the mix of outcomes need not match the whole.
